Rango release inh: inhibitors of RanGTP-induced Rango-importin beta complex dissociation | O95149+P62826 | Biochemical FRET Rango-importin beta, RanGTP-induced dissociation | Potency, µM (top dose mostly 46.1 µM), without a hit: at the highest dose activity change, negative = inhibition | actives 0.071% (n = 340,000) | AID 540253; active means falling FRET ratio curve, often poorly fitted, with flat reads before Ran was added; inconclusive means other falling curves, or compound fluorescence or quenching; inactive means flat or rising ratio curve;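 further: potency means the concentration at half of the fitted maximal effect; % of control where 0% means no effect; nearly all actives have a fitted effect of over 45% in size; -100% = wells without RanGTP and RCC1; the record marks most hits as doubtful in a second field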
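Rango/importin beta premix (0.1/0.25 uM final), PBS + 1 mM DTT + 0.02% Tween-20 + 0.1% BSA; cpd 5 min RT; FRET pre-read; + RanGTP-RCC1 (0.6 uM Ran, 2 mM GTP, 0.2 uM RCC1); 45 min RT; FRET post-read, ex 430, em 486/530 nm.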
Rango-impB inh: inhibitors of Rango-importin beta complex formation | Rango CFP/YFP FRET sensor + importin beta, 45 min | Potency, µM (highest dose often 92.2 µM), without a hit: at the highest dose inhibition of complex formation | actives 0.031% (n = 340,000) | AID 540263; active = rising FRET ratio curve, often small or poorly fitted; inconclusive = mostly compound fluorescence or quenching in the first reads; inactive = flat curves in all reads;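 further: potency means the concentration at half of the fitted maximal effect; 0% = DMSO wells and 100% = buffer wells lacking importin beta; nearly all actives have a fitted effect of over 15% in size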
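FRET biosensor (snurportin 1 IBB flanked by EYFP and cerulean), 50 nM, with compound 5 min, then 0.125 microM importin beta in PBS, 1 mM DTT, 0.02% Tween-20, 0.1% BSA. CFP/YFP ratio read after 45 min at room temperature; pre-read flags interference.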
miR-21 FLuc: raises the signal of a miR-21 reporter | HeLa miR-21 FLuc reporter, luciferase, 48 h | Potency, µM (doses to about 38.3 µM), without a hit: top-dose reporter change, positive = more light | 340,000 tested, under 10 active | AID 2288; active = well fitted rising curve with a large enough effect; inconclusive = small, poorly fitted or top-dose-only effect; inactive = no such curve, though single readings can be large or run the other way;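 further: % of control where 0% means no effect; miR-21 action dims this reporter so a rising signal means less miR-21 action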
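Luminescence from a firefly luciferase reporter carrying a miR-21 binding site downstream, stably expressed under a CMV promoter in HeLa cells that make miR-21 endogenously, reports miRNA modulation after 48 h compound exposure up to approximately 40uM final.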
GLA inh pH 4.5: inhibitors of human alpha-galactosidase A at pH 4.5. P06280. purified enzyme, 4-MU-alpha-Gal fluorescence, pH 4.5. activity change, negative = inhibition, % at 105 µM. 230,000 tested, under 10 active. AID 1467; inconclusive = small, poorly fitted or top-dose-only inhibition, or a rising curve; inactive = flat fitted curve, though single readings scatter; no compound was filed as active;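 further: 0% = full activity with enzyme and -100% = basal without enzyme; dose as in the result columns while the protocol names 77 µM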
Target sequence (P06280 whole entry, looked up): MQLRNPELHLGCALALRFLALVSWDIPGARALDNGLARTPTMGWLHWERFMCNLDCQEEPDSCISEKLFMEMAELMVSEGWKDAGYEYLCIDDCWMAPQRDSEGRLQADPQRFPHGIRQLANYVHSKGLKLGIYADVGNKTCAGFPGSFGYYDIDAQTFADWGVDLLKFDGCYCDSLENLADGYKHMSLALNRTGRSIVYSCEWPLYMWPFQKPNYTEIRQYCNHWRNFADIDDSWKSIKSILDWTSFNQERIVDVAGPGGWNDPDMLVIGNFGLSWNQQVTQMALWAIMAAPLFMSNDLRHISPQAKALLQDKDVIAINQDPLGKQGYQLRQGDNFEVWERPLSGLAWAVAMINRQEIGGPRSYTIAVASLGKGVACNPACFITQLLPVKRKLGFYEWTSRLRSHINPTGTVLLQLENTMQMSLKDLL
* = called active by the depositor; ? = inconclusive; . = not tested or not shown. This is a subset (hit frequency here may not be typical).

Rango release inh	Rango-impB inh	miR-21 FLuc	GLA inh pH 4.5	Compound
-10.4%	?	7.8%	-0.7	CCOC1(OCC)C(c2ccc(Cl)cc2)C(C#N)(C#N)C1(OCC)OCC (stereo not drawn)
-5.4%	3.0%	.	.	O=C(O)C1(O)C[C@@H](O)C(O)[C@H](O)C1 (stereo partly drawn)
5.7%	-0.5%	9.0%	-8.2	COCCn1cnc2c(c1=O)c1nc3ccccc3nc1n2/N=C/c1ccc(OC)c(OC)c1
8.7%	4.8%	-7.5%	2.2	O=C(Nc1nnc(CCN2CCCCC2)s1)c1ccc(Cl)cc1Cl
0.0%	-3.4%	.	.	C=CC[C@H](CC(=O)N(CCO)Cc1ccccc1)C(=O)N[C@H](C)COC(=O)[C@@H](CC=C)Cc1ccc(F)cc1
-0.3%	-0.6%	.	.	Cc1ccc(C(=O)C(C)OC(=O)C2CCN(c3ccc(C(F)(F)F)cn3)CC2)cc1C (stereo not drawn)
-2.9%	-1.7%	11.7%	1.4	O=C(NC1CCCc2ccccc21)c1n[nH]c(=O)c2ccccc12 (stereo not drawn)
13.4%	-2.2%	-34.9%	-10.9	CC(C)(C)c1ccc(NC(=O)COC(=O)C2=COCCO2)cc1
6.8%	3.5%	-29.2%	7.5	Cc1ccc(C2C=NN(c3ccccc3)C2=O)cc1 (stereo not drawn)
0.3%	1.9%	-49.1%	.	Clc1ccc(-c2cc(CN3CCOCC3)no2)cc1
1.1%	12.3%	-33.2%	-1.0	N#Cc1cn(-c2ccccc2)nc1-c1ccccc1
-3.3%	4.7%	1.8%	2.8	CCC(C)C(NC(=O)c1ccc(Cl)cc1)C(=O)Nc1cccnc1 (stereo not drawn)
2.8%	-7.5%	-3.5%	6.3	C=CCNC(=O)CN(c1ccccc1OCC)S(=O)(=O)c1ccc(C)cc1
7.5%	2.9%	-7.8%	-6.2	Cc1ccc(CNC2=NCCCCC2)n1C
13.0%	-1.1%	23.0%	-1.9	O=C(Nc1ccccc1)N1CCC(c2nc(-c3ccc(S(=O)(=O)N4CCOCC4)cc3)no2)CC1
-8.3%	2.0%	-12.9%	8.2	CC(/C=C/c1ccc(O)cc1)=N/O
2.3%	-9.3%	0.7%	-0.4	CCOC(=O)c1ccc2c(c1)nc(COc1ccc(OC)cc1)n2CC
2.0%	-0.3%	-2.8%	-0.7	CC(=O)N(C)c1ccc(NC(=O)Nc2ccc(C)c(C)c2)cc1
-5.9%	0.2%	.	.	Cc1noc(C)c1NC(=O)Nc1cccc2c1O[C@H](CN(C)C(=O)Nc1ccc(C(F)(F)F)cc1)[C@@H](C)CN([C@H](C)CO)C2=O
13.1%	2.7%	.	.	COc1cccc(OC)c1C1=CC(=O)C[C@H](c2ccc3c(c2)OCO3)C1
26.6%	4.9%	-0.6%	-12.4	COc1cc(/C=N/NC(=O)c2ccc(Cl)cc2)ccc1OCC(=O)N1CC(C)OC(C)C1 (stereo not drawn)
-6.3%	-1.6%	0.0%	2.2	CCCC12CN3CCN(CC(C3)/C1=N\NC(=O)Nc1ccccc1)C2
0.6%	-1.5%	1.2%	2.7	FC(F)(F)c1cc(-c2ccco2)nc(-n2nc(C(F)(F)F)cc2C2CC2)n1
-6.4%	6.0%	-13.0%	.	CCN(CC1CCCO1)C(=O)c1cc(COc2ccc(F)cc2F)on1 (stereo not drawn)
-21.8%	-5.7%	-52.0%	1.3	CCN1/C(=C\C(=S)Nc2ccccc2)Sc2ccccc21
-13.3%	0.0%	3.9%	.	COc1ccc(NS(=O)(=O)N2CCOCC2)cc1
?	-0.1%	-4.1%	0.3	CC(=Nc1ccccc1)C1=C(O)CCCC1=O
-1.2%	-2.3%	.	.	O=C(COC(=O)c1ccc(Br)o1)NCc1ccc2c(c1)OCO2
-23.7%	-3.3%	13.1%	-3.6	Cc1ccc(Cn2ccc(NC(=O)CCSc3nc(-c4ccco4)cc(C(F)(F)F)n3)n2)cc1
10.9%	-0.5%	-2.0%	.	CC(C)c1ccc(NC(=O)CN2CCN(c3ccccn3)CC2)cc1
-5.1%	1.0%	.	.	Cc1ccc(NC(=O)c2ccc(Cl)c(S(=O)(=O)N3CCCC3)c2)nc1
1.2%	-3.7%	-3.4%	-6.5	CC(=O)N/C(=C/c1ccc2c(c1)OCO2)C(=O)NCC(=O)O
-8.9%	-0.7%	.	.	COc1cccc2sc(N)nc12
0.0%	0.9%	10.1%	5.8	CCOCC(=O)N(CC)Cc1ccccc1
-0.5%	-5.1%	-4.0%	.	CCCCNC(=O)c1cn(CC)c2ccc(S(=O)(=O)N3CCCCCC3)cc2c1=O
3.0%	4.2%	-8.8%	4.4	COCc1cc(C)nc(Oc2ccccc2)c1C#N
16.4%	1.5%	-1.1%	.	COc1ccccc1NS(=O)(=O)c1ccc2c(c1)CCN2C(=O)CCC(=O)O
-1.0%	0.5%	0.2%	-21.6	Cc1ccc(NC(=S)N2CCC(C(N)=O)(N3CCCCC3)CC2)c(C)c1
-1.3%	0.2%	-5.8%	-6.8	CCOc1ccc(N2C(=O)CSC2c2ccncc2)cc1 (stereo not drawn)
-12.2%	-0.1%	.	.	CC(OC(=O)/C=C/c1ccccc1)C(=O)N1CCc2ccccc21 (stereo not drawn)
17.6%	11.8%	.	.	COc1ccc(OC)c2sc(N(CCCN(C)C)C(=O)CCS(=O)(=O)c3ccccc3)nc12
14.6%	3.9%	-3.1%	.	CC(C)c1ccc(NC(=O)CCNS(=O)(=O)c2ccc3[nH]c(=O)oc3c2)cc1
9.1%	5.2%	-9.7%	2.3	CCc1cc(-c2n[nH]c(=S)n2CC)cs1
-13.8%	-1.6%	.	.	CN(CC(=O)Nc1ccccc1Br)C(=O)COc1ccc2ccccc2c1
-2.5%	2.0%	-31.5%	1.1	Cc1ccccc1CSCC(=O)NC1CCCC1
-7.6%	1.3%	2.2%	.	COc1cc(NC(=O)c2ccc(C)cc2C)ccc1NC(=O)c1cc2ccccc2o1
-5.2%	-0.6%	-9.9%	-0.2	CCC(C)(C)c1ccc(OCCN2C(=O)NC(C)(C)C2=O)cc1
6.8%	-3.6%	6.4%	-17.6	COc1ccc(-c2noc(CCC(=O)N3CCN(Cc4ccccc4)CC3)n2)cc1
-0.1%	1.6%	13.0%	-6.1	CC(=O)Nc1ccc(Nc2nc(C)c([N+](=O)[O-])c(N(C)c3ccccc3)n2)cc1
-0.2%	0.7%	-1.2%	7.1	O=c1[nH]c2c(c(=O)[nH]1)CCC2
-5.7%	4.2%	-58.2%	.	Nc1c(-c2ccccc2)cnn1-c1ccccc1
6.7%	-2.0%	.	.	O=C(NNC1CCN(Cc2ccccc2)CC1)c1ccccc1
2.2%	-5.1%	-4.1%	-12.3	O=C(CCN1CCc2ccccc2C1)Nc1ccc(F)cc1
6.4%	-1.5%	-10.8%	-0.9	Cc1cc(C)nc(CCNC(=O)c2cc(COc3ccc(F)cc3Cl)on2)n1
-16.8%	?	-43.9%	.	Oc1ccccc1C1NN=C(c2ccccc2)S1 (stereo not drawn)
10.1%	3.4%	2.3%	4.5	CSc1ccccc1C(=O)Nc1c(C)cccc1C
4.0%	0.1%	2.6%	7.9	CC1CCc2cc(F)ccc2N1C(=O)c1cccs1 (stereo not drawn)
.	.	7.1%	-1.9	O=C(OCC(=O)N1CCN(c2ccccc2)CC1)c1cnc(Cl)c(Cl)c1
3.2%	?	?	-3.8	COc1ccc(Nc2nc(C(=O)N3CCc4cc(OC)c(OC)cc4C3)cs2)cc1
-4.4%	-0.4%	.	.	Clc1ccc(Cl)c(-c2nn3c(Cn4cnc5ccccc54)nnc3s2)c1

In the list so far, 2 have bromine.
Rango release inh	Rango-impB inh	miR-21 FLuc	GLA inh pH 4.5	Compound
-1.2%	-2.3%	.	.	O=C(COC(=O)c1ccc(Br)o1)NCc1ccc2c(c1)OCO2
-13.8%	-1.6%	.	.	CN(CC(=O)Nc1ccccc1Br)C(=O)COc1ccc2ccccc2c1

Following part.
Rango release inh	Rango-impB inh	miR-21 FLuc	GLA inh pH 4.5	Compound
-5.6%	3.0%	-11.7%	.	O=C(O)c1ccc(CSCc2ccccc2Cl)o1
-1.3%	-1.5%	-9.1%	5.4	COc1cccc(C(=O)NC(c2ccccc2)C2CCCC2)c1 (stereo not drawn)
-1.4%	5.0%	1.2%	3.8	COc1cccc(-n2c(SCC(N)=O)nnc2-c2ccncc2)c1
-14.4%	4.0%	-0.4%	6.3	C=CCN1C(=O)C2C3CC(=O)C(c4ccccc43)C2C1=O (stereo not drawn)
4.9%	2.3%	-3.1%	.	Cc1cc(C)c(S(=O)(=O)N2CCCC2=O)c(C)c1N(C)S(C)(=O)=O
11.3%	-4.5%	-0.9%	4.2	CCSc1nnc(CSc2ncccn2)n1C
0.7%	0.3%	3.9%	-6.8	CCCCN(C)S(=O)(=O)c1ccc(C(=O)Nc2nnc(C3=COCCO3)o2)cc1
-1.9%	0.5%	-4.5%	8.1	Nc1nonc1-n1nncc1-c1ccccc1
.	.	-10.6%	4.8	Cc1ccc(-c2nnc3c4ccccc4c(C)nn23)cc1NC(=O)CN1CCOCC1
-7.3%	-2.1%	-2.8%	.	CC(C)c1ccc(N(C(=O)c2csnn2)C(C(=O)NC2CCCC2)c2cccnc2)cc1 (stereo not drawn)
-4.5%	3.1%	-7.1%	-5.1	CCc1cc2c(NCCN3CCCCC3)ncnc2s1
-7.6%	1.1%	0.1%	.	COc1ccc(CN2CCNC(=O)C2CC(=O)N2CCCN(C(C)=O)CC2)cc1OC (stereo not drawn)
-13.3%	1.2%	16.0%	-10.4	Cc1ccc(C)c(NS(=O)(=O)c2ccc(OCC(=O)NCc3cccnc3)cc2)c1
12.3%	5.1%	-7.4%	3.2	C/C(=N/NC(=O)c1ccccc1)C1=C(O)CC(C)(C)CC1=O
-0.3%	-1.6%	-16.6%	4.9	CCOC(=O)CC(NC(=O)C1c2ccccc2Oc2ccccc21)c1ccc(C)cc1 (stereo not drawn)
?	?	-33.8%	1.7	Cc1nn(C)c(C)c1N1C(=O)c2cccc3c(N)ccc(c23)C1=O
0.7%	-3.9%	.	.	CC(=O)Nc1sc(C)c(C)c1C(=O)OCC(=O)N(Cc1ccccc1)C(C)C
-1.2%	0.7%	.	.	Cc1ccc(CC(=O)CCc2ccccc2)cc1
-15.3%	?	-38.5%	2.5	Oc1ccccc1/C=N/NC1=NCCCCC1
-12.8%	?	5.3%	-6.0	COc1ccccc1C1c2[nH]c3ccccc3c2CCN1Cc1ccc(NC(C)=O)s1 (stereo not drawn)
1.4%	-2.7%	-3.9%	1.3	Cc1ccc(Cn2c(SC(C)C(N)=O)nc3ccccc3c2=O)cc1 (stereo not drawn)
-8.7%	4.4%	.	.	O=C(OCc1csc(-c2ccccc2)n1)C1=NN(c2ccccc2)C(=O)CC1
1.1%	1.0%	.	.	CN(C)c1ccc(C(CNS(=O)(=O)c2ccc([N+](=O)[O-])cc2)N2CCCC2)cc1 (stereo not drawn)
26.5%	0.6%	2.4%	4.4	COCCCNC(=O)CC(NS(=O)(=O)c1ccc(Cl)cc1)c1ccco1 (stereo not drawn)
-2.7%	-1.6%	.	.	O=C(CCNS(=O)(=O)c1ccccc1)OCC(=O)c1ccc(Cl)cc1
-20.3%	-1.8%	-22.6%	-9.7	COc1ccc2nc(/N=C(\N)NC(=O)Nc3ccccc3)nc(C)c2c1
7.6%	-2.0%	-4.4%	-1.5	CCOc1ccc(NC(=S)NC(=O)c2c(Cl)cnn2CC)c([N+](=O)[O-])c1
10.8%	-0.7%	6.6%	-18.1	Clc1ccc(CON/C=N/c2ncnc3sccc23)cc1
-7.8%	-2.4%	-2.7%	9.9	CCNC(=S)N/N=C/c1cccc(/C=N/NC(=S)NCC)c1

Whole records as entered above:
`COCCn1cnc2c(c1=O)c1nc3ccccc3nc1n2/N=C/c1ccc(OC)c(OC)c1` reads Rango release inh: 5.7%; Rango-impB inh: -0.5%; miR-21 FLuc: 9.0%; GLA inh pH 4.5: -8.2
`Nc1c(-c2ccccc2)cnn1-c1ccccc1` reads Rango release inh: -5.7%; Rango-impB inh: 4.2%; miR-21 FLuc: -58.2%; GLA inh pH 4.5: .
